KCNQ2 pot: potentiators of rat KCNQ2 potassium channel | 0.54% of 310,000 active | O88943 | CHO-K1 KCNQ2, FluxOR thallium flux fluorescence; active compounds read high | AID 2239 | B-score at 10 µM;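 active means fluorescence ratio B-score at least 3 SD of library B-scores, with initial fluorescence B-score within 3 SD, cut at about 5.3 in these data; same plate scores as AID 2156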;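 further: B-score of peak minus minimum over baseline fluorescence ratio after K+ and Tl+ stimulus; positive B-score means potentiation of KCNQ2 with more thallium influx and brighter signal; only the inactives scoring about 0 or higher are listed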
Target sequence (O88943 whole entry, looked up): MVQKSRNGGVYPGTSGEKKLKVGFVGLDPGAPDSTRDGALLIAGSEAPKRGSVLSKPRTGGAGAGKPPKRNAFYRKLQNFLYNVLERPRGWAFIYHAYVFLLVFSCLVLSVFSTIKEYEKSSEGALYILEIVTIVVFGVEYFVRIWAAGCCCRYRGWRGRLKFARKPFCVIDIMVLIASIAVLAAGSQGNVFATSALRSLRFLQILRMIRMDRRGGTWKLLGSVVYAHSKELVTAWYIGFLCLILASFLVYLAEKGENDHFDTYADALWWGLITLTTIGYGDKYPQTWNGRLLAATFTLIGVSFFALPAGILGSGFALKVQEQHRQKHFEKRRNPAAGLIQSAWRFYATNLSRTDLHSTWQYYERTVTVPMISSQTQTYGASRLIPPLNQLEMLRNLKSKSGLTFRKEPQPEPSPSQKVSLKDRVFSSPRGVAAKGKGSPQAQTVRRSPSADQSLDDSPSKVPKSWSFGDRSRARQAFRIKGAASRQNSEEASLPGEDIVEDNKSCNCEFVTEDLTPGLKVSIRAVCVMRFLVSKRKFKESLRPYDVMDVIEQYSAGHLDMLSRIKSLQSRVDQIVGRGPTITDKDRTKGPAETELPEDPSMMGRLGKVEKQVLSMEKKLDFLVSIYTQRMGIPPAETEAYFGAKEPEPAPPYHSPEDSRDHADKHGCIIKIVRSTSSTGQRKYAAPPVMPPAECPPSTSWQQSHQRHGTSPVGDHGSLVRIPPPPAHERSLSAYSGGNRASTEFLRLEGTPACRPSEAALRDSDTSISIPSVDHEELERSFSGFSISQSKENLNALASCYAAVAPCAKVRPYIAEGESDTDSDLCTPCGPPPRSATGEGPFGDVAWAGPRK
KCNQ2 pot baseline: further read-out of KCNQ2 pot, marked with its call; B-score; compound at 10 µM; measured here: initial fluorescence intensity artifact check;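 brightness before thallium and not channel activity; 0 = typical well and far values either way flag optical interference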
Starred values were filed as active, the others as inactive.

SMILES	KCNQ2 pot	KCNQ2 pot baseline
O=C(c1ccccc1)N(Cc1ccco1)C1CCS(=O)(=O)C1 (centres undefined)	0.32	1.4
COc1cc(Cc2cc(N)nc(N)n2)cc(OC)c1OC	0.87	0.11
CCCCC(=O)NCCc1ccc(S(N)(=O)=O)cc1	0.35	0.52
CCOc1cc(C(=O)OC(C)C(=O)Nc2ncc(Cl)cc2Cl)ccc1OCC(=O)N1CCOCC1 (centres undefined)	0.5	1.1
Cc1nn(CC(=O)NCCc2ccccc2)c(=O)c2ccccc12	0.08	-2.3
OCCN(CC(O)COc1ccccc1)CC(O)Cn1ccc2ccccc21 (centres undefined)	0.01	-0.09
COc1ccc(CN=C(C)c2c(C(F)(F)F)[nH]n(-c3nc4ccccc4s3)c2=O)cc1	1.5	-0.02
C=C(C)C(=O)Nc1cccc(C2=NOC3(C2)C[C@@H](C(N)=O)N(C(=O)CCCCC)C3)c1 (some centres undefined)	0.67	-0.95
Nc1nc(-c2ccc(Cl)cc2)cc(C(F)(F)F)n1	0.83	-0.06
COc1ccccc1OCC(=O)Nc1ccc2c(c1)OCCO2	0.36	-0.33
C[C@H](NC(=O)N1CCn2c1nc1ccccc12)C(=O)NCc1ccc(F)cc1	0.32	-0.47
COc1cc(C)c(S(=O)(=O)N2CCOCC2)c(C)c1C	0.17	0.16
N#Cc1ccc(N2CCOCC2)c([N+](=O)[O-])c1	0.4	-0.06
CC1=NNC(=O)C1CCC(=O)N/N=C(\C)c1ccccc1 (centres undefined)	0.77	0.02
CCCOc1ccc(C(=O)NNC(=S)NC(=O)c2ccccc2)cc1	20*	0.56*
Cc1nc(-c2ccccc2)sc1-c1n[nH]c(=S)n1C	0.82	-3
CC(c1ccccc1)c1nnc(NC(=O)Nc2ccccc2)s1 (centres undefined)	1.1	-0.77
O=[N+]([O-])c1ccc(NC(=S)NCc2ccc(F)cc2)cc1	21*	2.1*
O=C(COC(=O)c1ccco1)NCc1ccc(F)cc1	0.1	-0.95
CCC(C(=O)Nc1ccccn1)c1ccccc1 (centres undefined)	0.04	-1.5
COc1ccc(-n2cnc3cc(NC(=O)c4ccco4)ccc32)cc1	1.5	-0.52
COc1ccc(-c2nnc3sc(CCN4C(=O)c5ccccc5C4=O)nn23)cc1	0.69	-0.83
O=C(NC1CCCCC1)c1ccccc1NC(=O)C1CC1	0.7	-1.1
COc1cccc(NC(=O)CSc2nc(C3CC3)nc3ccccc23)c1	0.29	-0.18
Cc1cccn2c(=O)c3cc(C(=O)NCC4CCCO4)c(=N)n(Cc4ccc(F)cc4)c3nc12 (centres undefined)	0.3	-0.32
Cc1cc([N+](=O)[O-])nn1Cc1noc(C(=O)NCc2ccc3c(c2)OCO3)n1	0.53	0.11
CC(=O)Nc1ccc(SCC(=O)OCC(=O)NC(=O)NCCC(C)C)cc1	1.3	0.26
Cc1nc2c(-c3ccc(F)cc3)c(C)nn2c(C)c1CCC(=O)N1CCOCC1	0.03	-0.97
CCOC(=O)c1ncn2c1C(=O)OC2(C)C	0.92	0.05
CCc1cc2cccc(C)c2nc1SCC(=O)NC1CCCC1	0.49	-0.12

Arranged by SMILES length (falling): 4 of the compounds above
SMILES	KCNQ2 pot	KCNQ2 pot baseline
Cc1cccn2c(=O)c3cc(C(=O)NCC4CCCO4)c(=N)n(Cc4ccc(F)cc4)c3nc12 (centres undefined)	0.3	-0.32
COc1ccc(-c2nnc3sc(CCN4C(=O)c5ccccc5C4=O)nn23)cc1	0.69	-0.83
COc1ccc(-n2cnc3cc(NC(=O)c4ccco4)ccc32)cc1	1.5	-0.52
CCOC(=O)c1ncn2c1C(=O)OC2(C)C	0.92	0.05

(next part)
SMILES	KCNQ2 pot	KCNQ2 pot baseline
CCOc1ccc(/C=N/NC(=O)NC23CC4CC(CC(C4)C2)C3)cc1O	0.53	-2.4
N/C(=N\OC(=O)/C=C/c1ccccc1)c1cccnc1	1.2	-1.8
NC(=O)C(c1ccc(F)cc1)c1ccc(C(=O)c2ccccc2)cc1 (centres undefined)	2.1	-2.1
CC(Oc1ccc2c(-c3ccccc3)cc(=O)oc2c1)C(=O)NC(Cc1c[nH]c2ccc(O)cc12)C(=O)O (centres undefined)	0.49	-0.36
CC1(C)CC(NC(=O)COc2ccc([N+](=O)[O-])cc2)CC(C)(C)N1	0.46	-0.47
N#CC1(NC(=O)COc2ccc3oc4ccccc4c3c2)CCCCC1	0.72	0.01
CC1CCCN(C(=O)COc2ccc3c(c2)OCO3)C1 (centres undefined)	0.01	-3.7
CCCCOc1ccc(Cl)cc1CSc1nncn1N	0.68	2.1
Cc1cc(Oc2nc3ccccn3c(=O)c2/C=C(\C#N)C(=O)NC2CCS(=O)(=O)C2)ccc1Cl (centres undefined)	0.14	0.37
O=C(CSc1nnc(CNc2ccc(Cl)cc2)n1Cc1ccccc1)NCc1ccco1	0.58	0.46
Cn1c(SCC(=O)Nc2ccc(NC(=O)c3ccccc3)cc2)nnc1-c1ccncc1	1.1	0.51
COc1cccc(/C=N/NC(=O)CNC(=O)COc2cccc(C)c2)c1O	1.1	-0.07
COc1ccc(N2CCN(C(=O)CCS(=O)(=O)c3ccc4c(c3)NC(=O)C(C)S4)CC2)cc1 (centres undefined)	0.98	0.35
CN1CN(C)C(c2ccncc2)=C1c1ccncc1	0.83	2.1
CC(C)c1ccc(/C=C2\NC(=S)N(Cc3cccnc3)C2=O)cc1	1.6	0.53
CCOC(=O)Cc1nnc(Nc2ccc(C)cc2)c2ccccc12	0.27	1.1
Cc1cc(-n2c(SCc3ccccc3F)nc3n[nH]c(C)c3c2=N)ccc1Cl	0.77	-0.71
S=C(NCc1ccccc1)NCc1ccccn1	0.15	-0.43
Cc1nc2[nH]c(=S)n(C)c(=O)c2nc1C	0.03	1.3
COc1ccc2c(c1)OC1(C)CC2C(C(=O)c2ccccc2OC)C(=O)N1 (centres undefined)	0.11	-0.15

Ordered by value in KCNQ2 pot baseline (falling): five of the compounds above
SMILES	KCNQ2 pot	KCNQ2 pot baseline
O=[N+]([O-])c1ccc(NC(=S)NCc2ccc(F)cc2)cc1	21*	2.1*
N#CC1(NC(=O)COc2ccc3oc4ccccc4c3c2)CCCCC1	0.72	0.01
COc1ccc(CN=C(C)c2c(C(F)(F)F)[nH]n(-c3nc4ccccc4s3)c2=O)cc1	1.5	-0.02
Cc1cccn2c(=O)c3cc(C(=O)NCC4CCCO4)c(=N)n(Cc4ccc(F)cc4)c3nc12 (centres undefined)	0.3	-0.32
C[C@H](NC(=O)N1CCn2c1nc1ccccc12)C(=O)NCc1ccc(F)cc1	0.32	-0.47

Remaining list, next part
SMILES	KCNQ2 pot	KCNQ2 pot baseline
COc1ccc(CCNC(=O)c2ccc3c(c2)NC(=O)CS3)cc1OC	0.74	-0.04
CC1(C)CC(C(CC(=O)N2CCCC2)Cc2ccccc2)CCO1 (centres undefined)	0.41	-0.06
COc1ccc(C2CC(c3cccs3)=NN2C(=O)c2ccccc2)cc1OC (centres undefined)	0.14	0.02
CCOC(=O)Cc1csc(SCC(=O)Nc2cc(Cl)ccc2Oc2ccccc2)n1	1.4	0.34
COc1cc(OC)cc(C(=O)NC2=NCCS2)c1	1.9	-1.8
Cc1c(NC(=S)N/N=C/c2ccc(Br)cc2)c(=O)n(-c2ccccc2)n1C	0.42	-1.4
CCOc1ccccc1N=Nc1c(C)[nH]n(-c2ccccc2)c1=O	1.4	-0.01
Cc1ccc(OC(=S)Nc2ccc(F)cc2)cc1	0.18	1.9
O=C(O)c1cccc(NS(=O)(=O)c2ccc(-c3ccc(S(=O)(=O)Nc4cccc(C(=O)O)c4)cc3)cc2)c1	0.07	-0.83
Cc1c(NC(=O)c2ccccc2NS(=O)(=O)c2ccc(F)cc2)c(=O)n(-c2ccccc2)n1C	0.19	-0.53
COc1ccc(CNCCNC(=O)c2ccco2)c(OC)c1OC	0.81	0.34
c1ccc(-c2ncc(CSc3nncn3-c3ccccc3)s2)cc1	0.8	-4.4
CCOc1cc(/C=N/n2nnnc2N)ccc1OCc1c(C)no[n+]1[O-]	2.1	-0.81
c1ccc(NC(=NCc2ccco2)c2ccccc2)cc1	0.07	-0.02
O=C(COC(=O)c1cccnc1Cl)Nc1cc(S(=O)(=O)N2CCCCC2)ccc1Cl	0.17	-0.91
CC[C@H](C)[C@@H]1NC(=O)c2cc([N+](=O)[O-])cc(F)c2OCC[C@@H](C(N)=O)NC(=O)[C@H](CCCCN)NC1=O	1.2	-0.71
CCOc1ccc(/C(O)=C2/C(=O)C(=O)N(CCN(C)C)C2c2ccccc2)cc1Cl (centres undefined)	0.5	-0.03
CSc1nnc(-c2ccc(S(=O)(=O)N3CCCCC3)cc2)o1	0.33	-0.39
Cc1ccccc1NC(=O)c1ccc(CN(c2ccccc2)S(=O)(=O)c2ccccc2)cc1	0.39	-0.5
CCOc1ccc(OCC)c(NS(=O)(=O)c2cccc3nsnc23)c1	0.78	0.09
CCOC(=O)c1sc(NC(=O)CSc2nc3c(cc2C#N)CCCCC3)c(C#N)c1C	1	0.24
Oc1ccc(N2CCN(C(=S)NCc3ccccc3)CC2)cc1	0.44	-0.41
O=C(c1ccco1)N1N=C(c2ccc3nccnc3c2)CC1c1ccccc1 (centres undefined)	1.7	-1
CC(=O)N(Cc1ccccc1)c1nc(-c2ccccc2)cs1	0.02	0.88
COc1ccc(NC(=O)COc2ccc(C)c(C)c2)cc1S(=O)(=O)N1CCCCC1	0.64	-1.4
CN(Cc1ccc(Cl)cc1)C(=O)c1ccc2ccccc2n1	0.42	2.2
O=C1NC(NS(=O)(=O)c2ccccc2)(C(F)(F)F)C(=O)N1c1ccc(F)cc1 (centres undefined)	0.6	0.66
Cc1cccc(-n2c(-c3csc4ccccc34)n[nH]c2=S)c1	1.9	-0.24
CCOc1ccc(NC(=S)NCCCN2CCN(C3CCCCC3)CC2)cc1	1.9	-1.4
O=[N+]([O-])c1cccc(-c2cc3cccc[n+]3cc2-c2cccc([N+](=O)[O-])c2)c1	0.08	-1.2
CC(=O)COC(=O)c1ccc2noc(-c3ccccc3)c2c1	0.04	-0.03
CCN1CCN(c2cc(C)c3cc(NC(=O)CCC(=O)Nc4ccc(OC)cc4OC)ccc3n2)CC1	0.47	-1.6
O=C(Nc1ccc2c(c1)OCO2)N1CCN(Cc2ccco2)CC1	1.4	0.85
CCO[C@H]1OC(C(=O)NC2CC2)=C[C@@H](c2ccccc2)[C@@H]1CCCO	0.54	-0.01
CCN(C(=O)CN1CCN(c2ccccc2O)CC1)c1c(N)n(Cc2ccccc2)c(=O)[nH]c1=O	0.08	0.83
O=C(COC(=O)CNC(=O)c1cccc([N+](=O)[O-])c1)Nc1ccccc1OC(F)F	0.84	-1.1
CCOC(=O)N1CCN(C(=O)c2cccn3c(=O)c4c5c(sc4nc23)CCCC5)CC1	0.71	-0.41
CN(C)c1ccc(C(=O)N2CCCC(N3CCN(Cc4ccc5c(c4)OCO5)CC3)C2)cc1 (centres undefined)	0.96	0.51
O=C(NC(NC(=S)Nc1ccc(Cl)cc1)C(Cl)(Cl)Cl)c1ccco1 (centres undefined)	0.04	0.33
Cc1c(C(=O)/C=C/N(C)C)nnn1-c1ccc(F)c(Cl)c1	0.29	-1.9

The closing 2 entries of the section before come first, to join the parts:
SMILES	KCNQ2 pot	KCNQ2 pot baseline
O=C(NC(NC(=S)Nc1ccc(Cl)cc1)C(Cl)(Cl)Cl)c1ccco1 (centres undefined)	0.04	0.33
Cc1c(C(=O)/C=C/N(C)C)nnn1-c1ccc(F)c(Cl)c1	0.29	-1.9
Cc1cccc(-n2nnc(C(=O)NCc3ccco3)c2N)c1	1.1	2.2
NS(=O)(=O)c1cccnc1Nc1cccc(Cl)c1	1.4	-1.7
CCN(CC)C(=O)c1[nH]cnc1C(=O)N[C@@H](CC(C)C)C(=O)OC(C)(C)C	0.02	-0.01
CC(C)(C)N(Cc1ccccc1)C(=O)COC(=O)Cn1cnc2ccccc2c1=O	1.4	0.72
S=C(Nc1ccc(Cl)cc1)NC1CCCCC1	2.8	-0.97
C/C(=N\Nc1ccc(Cl)cc1)c1ccncc1	2.6	0.69
CCOc1ccccc1NC(=O)CSc1nc2[nH]ncc2c(=O)[nH]1	0.82	-0.74
Cc1ccc(-n2c(SCC(=O)N3CCC(C(=O)O)CC3)nc3ccccc3c2=O)cc1C	0.02	-1
CC(Oc1ccc(F)cc1)C(=O)Nc1cc(S(=O)(=O)N2CCOCC2)ccc1N1CCCC1 (centres undefined)	0.16	2.2
COc1ccc(N(CC(=O)Nc2ccc(S(=O)(=O)N3CCOCC3)cc2)S(=O)(=O)c2ccccc2)cc1	1.4	-0.43
O=C(Nc1ccc(Cl)cc1)N(CCCN1CCOCC1)Cc1cccs1	0.02	-0.9
Cc1cc(OC(=O)c2cccc(Br)c2)c([N+](=O)[O-])c(=O)[nH]1	1.2	-0.82
Cc1ccc(Sc2ncccc2C(=O)O)cc1	0.34	-1.4
CCCCCC1CCC(c2n[nH]c(=S)n2C)CC1 (centres undefined)	0.49	2.1
O=C(Oc1ccc(Br)cc1)c1cccnc1	1.3	-1.6
CC(=O)c1cccc(NC(=O)CN(C2CCCCC2)S(C)(=O)=O)c1	0.14	-0.03
O=C(COC(=O)C1CCC1)Nc1ccccc1Sc1ccccc1	0.13	-0.86
COc1ccc(CCNC(=O)CCNC(=O)c2ccc([N+](=O)[O-])cc2)cc1	0.66	0.55
CCn1c(CNc2ccccc2Cl)nnc1SCCN1CCCCC1	1.8	0.67
Cc1ccc(NC(=S)N2CCN(Cc3ccccc3)CC2)cc1	0.8	-1.8
CC(C)(C)c1ccc(C(=O)NCC(=O)N/N=C/c2cccs2)cc1	0.84	0.84
COc1ccc2nc(/N=C/c3c(C)[nH]n(-c4ccc(C)cc4)c3=O)sc2c1	21*	-0.89*
COc1cc(/C=N/NC(=O)c2cccc([N+](=O)[O-])c2)ccc1O	0.46	-0.6
O=C1CNC(=O)/C(=C/c2cccs2)N1	1.6	-0.52
OC1(CNCc2cn[nH]c2-c2cc3ccccc3o2)CCCCC1	0.28	-0.27

The list is partial. The share of hits here may be higher or lower than overall.
